D2 potentiator – Beta-Arrestin HTS for Positive Allosteric Modulators of the Human D2 Dopamine Receptor: Potentiators; D(2) dopamine receptor (Homo sapiens), P14416; DiscoveRx D2 beta-arrestin cells, luminescence, 90 min; 100% = 57 uM dopamine signal; potentiation, % (no concentration beside the values); 0.23% of 360,000 active; active = potentiation of 50% or more; inconclusive = 30% to 50%; inactive = 30% or less;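 also: compound concentration not given in the record; tested on top of an EC20 dose of dopamine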
Target sequence (P14416 whole entry, looked up): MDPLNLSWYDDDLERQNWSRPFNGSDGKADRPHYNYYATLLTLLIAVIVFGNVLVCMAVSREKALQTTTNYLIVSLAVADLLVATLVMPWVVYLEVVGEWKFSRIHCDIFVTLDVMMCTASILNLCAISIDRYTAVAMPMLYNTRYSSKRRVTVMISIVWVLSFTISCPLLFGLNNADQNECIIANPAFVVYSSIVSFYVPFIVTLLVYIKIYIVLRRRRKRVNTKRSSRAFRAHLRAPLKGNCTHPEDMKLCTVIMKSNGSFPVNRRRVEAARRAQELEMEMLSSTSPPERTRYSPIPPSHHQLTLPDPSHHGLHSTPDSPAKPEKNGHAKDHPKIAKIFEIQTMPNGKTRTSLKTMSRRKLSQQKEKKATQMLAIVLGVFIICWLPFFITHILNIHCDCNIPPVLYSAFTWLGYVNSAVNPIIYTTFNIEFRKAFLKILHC
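PathHunter D2 cells, attached overnight at 37 deg C, received compound in DMSO plus dopamine at EC20 (50 nM final) for 90 min at 37 deg C. Beta-arrestin recruitment was read as luminescence after 1 h with detection reagent at ambient temperature.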
PINK1 expr mod – A Quantitative High throughput Screen to Identify Chemical Modulators of PINK1 Expression. PINK1 immunofluorescence, high-content cytometry, 24 h. Potency, µM (top dose mostly 76.6 µM), for inactives: at the highest dose activation (PINK1 increase), actives largely listed as activators. AID 624263, 2012. 0.2% of 410,000 active; active = well fitted activation curve with a large enough effect; inconclusive = small, poorly fitted or top-dose-only effect; inactive = flat fitted curve, though single readings scatter; cell line not stated here;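 also: potency is read from the fitted curve at half-maximal effect; % of control where 0% means no effect; nearly all actives have a fitted effect of over 65% in size; a mitochondrial uncoupler was the plate control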
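PINK1 protein, normally rapidly degraded, was detected by immunofluorescence after 24 hour compound treatment of a stable cell line. Titration data (5 concentrations) came from laser-scanning cytometry, with CCCP-treated wells as controls.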
TRPML1 agonist – qHTS for Agonists of the Human Mucolipin Transient Receptor Potential 1 (TRPML1); Mucolipin-1 (Homo sapiens), Q9GZU1; activation, % (concentration not given with the values); TRPML1-expressing cells, Ca2+ dye fluorescence, FDSS; host cell line not named in the record; reference of the full effect not given here; 0.12% of 410,000 active; in the data active = activation above about 50%; inconclusive = about 30% to 50%; inactive = below about 30%; also: 0% is about no effect; the text of the record puts the active cut at 80%
Target sequence (Q9GZU1 whole entry, looked up): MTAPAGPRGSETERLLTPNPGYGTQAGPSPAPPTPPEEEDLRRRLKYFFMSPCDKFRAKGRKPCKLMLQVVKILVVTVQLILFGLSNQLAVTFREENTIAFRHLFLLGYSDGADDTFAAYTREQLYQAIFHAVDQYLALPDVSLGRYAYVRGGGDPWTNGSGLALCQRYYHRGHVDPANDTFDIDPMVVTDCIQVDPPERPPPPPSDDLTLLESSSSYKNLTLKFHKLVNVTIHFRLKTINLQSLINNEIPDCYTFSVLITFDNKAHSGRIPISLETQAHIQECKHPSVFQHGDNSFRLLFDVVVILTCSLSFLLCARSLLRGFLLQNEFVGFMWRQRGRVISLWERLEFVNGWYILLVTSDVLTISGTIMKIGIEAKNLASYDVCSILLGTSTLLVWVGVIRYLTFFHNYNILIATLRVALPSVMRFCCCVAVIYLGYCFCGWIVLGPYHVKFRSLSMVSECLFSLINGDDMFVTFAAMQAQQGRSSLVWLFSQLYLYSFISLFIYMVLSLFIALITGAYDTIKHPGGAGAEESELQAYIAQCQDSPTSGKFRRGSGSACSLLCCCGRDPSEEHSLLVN
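Calcium fluorescence on an FDSS kinetic reader gave the read-out. Tet-induced TRPML1-DL cells were plated overnight, dye-loaded (Ca8 with quencher, 45-90 min, room temperature, dark), then read 110 s after compound addition, and again 110 s after 4uM final 54-4 (EC80).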
Six1-Eya2 blk – qHTS Assay for Inhibitors of the Six1/Eya2 Interaction; AlphaScreen GST-Six1/His-Eya2 binding, biochemical; stronger effect = lower value; control for the full effect not named in the record; 0.56% of 360,000 active; Homeobox protein SIX1 (Homo sapiens) + Protein phosphatase EYA2 (Homo sapiens), …; activity change, % (concentration not given with the values); AID 651725, 2012; in the data active = activity change below about -65%; inconclusive = about -30% to -65%; inactive = above about -30%; also: % is scaled to controls: 0 for no effect and ±100 for the full control effect
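Compounds are tested against tagged Six1 and Eya2 proteins bridged by glutathione donor and nickel acceptor beads; after a one-hour incubation at 37 °C without light, AlphaScreen emission is recorded.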
CtBP-E1A blk – qHTS Assay for Inhibitors of the CtBP/E1A Interaction | AlphaScreen GST-E1A/His-CtBP binding, 1536-well; stronger effect = lower value; control for the full effect not named in the record | AID 651724, 2012 | activity change, % (test concentration not listed) | 0.49% of 340,000 active; in the data active means activity change below about -65%; inconclusive means about -30% to -65%; inactive means above about -30%; also: % is scaled to controls: 0 for no effect and ±100 for the full control effect; compound concentration not given in the record
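AlphaScreen with 125 nM GST-E1A and 125 nM His-CtBP (5X stocks) in Tris pH 8.0, 300 mM NaCl, BSA, Tween 20, TCEP. Compounds preincubated 2 h at 37 deg C, then glutathione donor/nickel acceptor beads added for 1 h at 37 deg C in dark.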
D2 agonist – Beta-Arrestin HTS for Positive Allosteric Modulators of the Human D2 Dopamine Receptor: Agonists; D(2) dopamine receptor (Homo sapiens), P14416; DiscoveRx PathHunter D2 beta-arrestin, luminescence, 90 min; 100% = 57 uM dopamine signal; 0.084% of 360,000 active; activation, % (test concentration not listed); in the data active = activation above about 40%; inconclusive = about 15% to 40%; inactive = below about 15%; also: compound concentration not given in the record; the text of the record calls up to 30% inactive
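DiscoveRx PathHunter D2 beta-arrestin cells (2,100/well) attached overnight, then compound-stimulated 90 min at 37 C in HBSS/10 mM HEPES/0.1% Tween-20 buffer; beta-galactosidase complementation read by luminescence after 1 h at ambient temperature. Dopamine 57 uM final (EC100) as control.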
* hit, by the source's call; ? = inconclusive; · = not tested or not shown; [ ] = another dose, or the depositor's remark. Rows were taken by chance; overall some 1.3% were active at least once.

item	smiles	D2 potentiator	PINK1 expr mod	TRPML1 agonist	Six1-Eya2 blk	CtBP-E1A blk	D2 agonist
1	CCCCCCN1CCN(C2CN(Cc3ccc(F)cc3)S(=O)(=O)C2)CC1 (configuration not stated)	-14	0.5%	0.6	0	-2	-2.3
2	Cc1ccc(S(=O)(=O)N2CCC(C(=O)N[C@@H](Cc3ccccc3)C(=O)O)CC2)cc1	-7	14%[38.3 µM]	-0.7	3	9	-3.1
3	O=C1C2C3C=CC(C3)C2C(=O)N1Cc1ccc(CN2C(=O)C3C4C=CC(C4)C3C2=O)cc1 (configuration not stated)	-9	?	6.5	0	10	-1.1
4	CNC(=O)C1=C(C)NC(=S)NC1c1cc2c(cc1OC)CCCC2 (configuration not stated)	-10	6.6%	0.2	8	-4	-2.8
5	CCOc1cc(NC(=S)Nc2cccc(OC)c2)c(OCC)cc1NC(=O)C(C)C	14	2.2%	3.2	-13	-8	0.6
6	COc1ccc(C2CC(=O)C3=C(C2)Nc2ccccc2N(C(=O)CCC(=O)O)C3c2ccc(F)cc2)cc1OC (configuration not stated)	-3	2.0%	-0.1	-9	-2	2.9
7	CN(C)CCCOc1nc2c(c(=O)n(C)c(=O)n2C)n1C	28	-1.8%	0.0	9	-3	-2.3
8	COCC(=O)N1CCC(Oc2ccc(C(=O)NC3CCOC(C)(C)C3)cc2)CC1 (configuration not stated)	-18	-1.4%	0.3	-1	-5	-5.4
9	Cc1ccc(CNC(=O)CSc2nc(C)cc(C)c2C#N)cc1	4	1.6%	0.9	5	2	-2.2
10	CN(C)C(=S)Nc1ccc2ccccc2c1	-15	-0.1%	1.2	0	1	-2.4
11	CCCc1cc(C(=O)N(C)CC(=O)Nc2ccc(OCC)c(OCC)c2)sc1C	8	0.4%	4.9	-11	0	-1.6
12	CCOC(=O)c1cc(-c2ccccc2C)nn1CC1CC(c2cccnc2)=NO1 (configuration not stated)	-20	4.9%	0.3	-4	·	-1.7
13	CCn1c(SCC(=O)NCC2CCCO2)nc2c([nH]c3ccccc32)c1=O (configuration not stated)	5	0.3%	-0.6	5	-3	-0.4
14	CC(=O)ON=C1C=CC(=C(C#N)c2ccccc2)C=C1	-30	-0.4%	4.9	-11	0	-16
15	COc1cc(C(=O)Nc2nc(OC)c(-c3ccccc3)c(OC)n2)cc(OC)c1OC	-4	·	0.8	-1	5	0.5
16	O=S(=O)(NCc1ccc(C(F)(F)F)cc1)c1ccc(-n2cnnn2)cc1	7	2.3%	-0.7	-3	·	-0.2
17	CCCCNC(=O)c1ccc(CS(=O)(=O)c2ccccc2OC)o1	-4	3.0%	1.2	3	5	4.0
18	CCOC(=O)c1ccc(NC(=O)NCc2c(C)nn(CC)c2C)cc1	-4	2.1%	-0.5	-1	-1	-0.9
19	CCS(=O)(=O)c1nc(S(=O)(=O)c2ccc(C)cc2)c(N2CCC(C)CC2)s1	1	1.4%	3.7	3	·	4.3
20	CCOc1cc(/C=N/NC(=O)c2ccccc2-n2cccc2)ccc1O	-4	12%	-1.0	?	·	-3.7
21	CC(C)(C)c1ccc(CC(=O)N2CCC2(C)C(=O)N2CCCCC2)cc1 (configuration not stated)	-13	-0.7%	0.1	7	-20	-2.4
22	CCOC(=O)Cn1cc(/C=C/[N+](=O)[O-])c2ccccc21	-18	-1.8%	1.7	-4	·	-4.7
23	O=C(NCc1nnc(SCC(=O)N2CCCC2)o1)c1ccc(F)cc1	9	-0.7%	1.0	7	-5	3.6
24	Cc1ccc(NC(=O)CCN2C(=O)c3cccc4cccc(c34)C2=O)cc1	-2	5.5%	-0.8	9	-6	-1.0

Reformatted with two lines to a compound: entries from further up.
The line under a structure holds: D2 potentiator, PINK1 expr mod, TRPML1 agonist, Six1-Eya2 blk, CtBP-E1A blk, D2 agonist
#10 CN(C)C(=S)Nc1ccc2ccccc2c1
    -15, -0.1%, 1.2, 0, 1, -2.4
#11 CCCc1cc(C(=O)N(C)CC(=O)Nc2ccc(OCC)c(OCC)c2)sc1C
    8, 0.4%, 4.9, -11, 0, -1.6
#12 CCOC(=O)c1cc(-c2ccccc2C)nn1CC1CC(c2cccnc2)=NO1 (configuration not stated)
    -20, 4.9%, 0.3, -4, ·, -1.7
#13 CCn1c(SCC(=O)NCC2CCCO2)nc2c([nH]c3ccccc32)c1=O (configuration not stated)
    5, 0.3%, -0.6, 5, -3, -0.4
#14 CC(=O)ON=C1C=CC(=C(C#N)c2ccccc2)C=C1
    -30, -0.4%, 4.9, -11, 0, -16
#15 COc1cc(C(=O)Nc2nc(OC)c(-c3ccccc3)c(OC)n2)cc(OC)c1OC
    -4, ·, 0.8, -1, 5, 0.5
#16 O=S(=O)(NCc1ccc(C(F)(F)F)cc1)c1ccc(-n2cnnn2)cc1
    7, 2.3%, -0.7, -3, ·, -0.2
#17 CCCCNC(=O)c1ccc(CS(=O)(=O)c2ccccc2OC)o1
    -4, 3.0%, 1.2, 3, 5, 4.0
#18 CCOC(=O)c1ccc(NC(=O)NCc2c(C)nn(CC)c2C)cc1
    -4, 2.1%, -0.5, -1, -1, -0.9
#19 CCS(=O)(=O)c1nc(S(=O)(=O)c2ccc(C)cc2)c(N2CCC(C)CC2)s1
    1, 1.4%, 3.7, 3, ·, 4.3
#20 CCOc1cc(/C=N/NC(=O)c2ccccc2-n2cccc2)ccc1O
    -4, 12%, -1.0, ?, ·, -3.7
#21 CC(C)(C)c1ccc(CC(=O)N2CCC2(C)C(=O)N2CCCCC2)cc1 (configuration not stated)
    -13, -0.7%, 0.1, 7, -20, -2.4
#22 CCOC(=O)Cn1cc(/C=C/[N+](=O)[O-])c2ccccc21
    -18, -1.8%, 1.7, -4, ·, -4.7
#23 O=C(NCc1nnc(SCC(=O)N2CCCC2)o1)c1ccc(F)cc1
    9, -0.7%, 1.0, 7, -5, 3.6
#24 Cc1ccc(NC(=O)CCN2C(=O)c3cccc4cccc(c34)C2=O)cc1
    -2, 5.5%, -0.8, 9, -6, -1.0

Continued.
item	smiles	D2 potentiator	PINK1 expr mod	TRPML1 agonist	Six1-Eya2 blk	CtBP-E1A blk	D2 agonist
25	CCCn1cc(S(=O)(=O)c2ccc(OC)cc2)c(=O)c2cc(OC)ccc21	-14	0.1%	-0.3	2	-20	0.2
26	O=C(NNC(=S)Nc1ccc(Cl)c(Cl)c1)c1ccccn1	4	2.2%	1.7	-90*	·	-0.1
27	Clc1ccc(-c2csc3ncnc(NCCN4CCOCC4)c23)cc1	-14	-1.7%	3.6	-2	0	-1.5
28	CC(C)CC(=O)Nc1ccc(OCC(=O)O)cc1	-17	-0.4%	-0.6	4	6	-1.3
29	COc1cccc(/C=C/C(=O)OCC(=O)Nc2cccc(S(=O)(=O)NC3=NCCCCC3)c2)c1	-1	2.6%	4.9	-17	-76*	2.9
30	O=C(C1CC1c1ccccc1)N1CCN(c2cccc(Cl)c2)CC1 (configuration not stated)	4	0.8%	2.5	-2	-3	-2.3
31	CCOc1cc(/C=C/c2cccc[n+]2C)ccc1OCC(=O)Nc1ccc(C)cc1	-13	2.5%	2.6	8	1	-1.4
32	O=C(c1ccccc1)N1CCN(C2c3cccc4cccc(c34)C2NS(=O)(=O)c2ccccc2)CC1 (configuration not stated)	-15	-1.2%	0.2	-17	-13	-4.0
33	Cc1ccccc1-c1nc(CS(=O)(=O)CC(=O)NCCCN2CCCC2)c(C)o1	-8	-0.3%	-0.2	0	-9	-2.3
34	CCN(CC)CCN1C(=O)C(O)=C(C(=O)c2cc3cccc(OC)c3o2)C1c1ccc(F)cc1 (configuration not stated)	-21	-0.1%	-0.2	?	-17	-7.4
35	O=C(NCCN1CCCCC1)Nc1ccc(F)cc1	-17	0.2%	1.2	-7	5	-2.0
36	CC(=O)C1=C(O)C(=O)OC1c1ccc(C)cc1 (configuration not stated)	-4	-0.7%	0.4	3	3	-0.5
37	Nc1oc2ccccc2c1C(=O)Cc1ccccc1O[C@@H]1O[C@H](CO)[C@@H](O)[C@H](O)[C@H]1O	-6	3.2%	0.0	3	4	-5.3
38	OCC[C@@H]1C[C@@H](O)[C@H](O)[C@@]2(Cc3ccccc3CCO2)O1	-4	0.4%	-0.1	9	6	-1.2
39	CCN(CC(=O)N1CCN(Cc2ccccc2)CC1)S(=O)(=O)c1ccccc1	-32	-0.7%	0.1	-1	6	-0.6
40	CCOC(=O)N1CCN(C(=O)CN(c2ccc(C)cc2)S(=O)(=O)c2c(C)noc2C)CC1	-26	-1.3%	1.9	-2	1	-2.6
41	C/C(=N\NC(=O)c1cc(O)cc(O)c1)c1ccc(NC(=O)Cc2ccccc2)cc1	8	1.1%	0.0	-89*	-89*	8.2
42	O=C(CSC1=NS(=O)(=O)c2ccccc2N1)Nc1ccccc1F	0	-0.2%	-0.3	-2	-23	-0.1
43	CC(=O)c1nc2ccccc2n1S(=O)(=O)c1ccc(Cl)cc1	-4	5.2%[38.3 µM]	1.2	6	-2	0.4
44	COC(=O)/C=C1/S/C(=N/NC(=O)c2ccc(Cl)cc2Cl)NC1=O	-8	3.7%	-0.1	-2	2	-1.1
45	CCC(C(=O)NC(C)(C)C)N(Cc1ccccc1Cl)C(=O)c1snc(C(N)=O)c1N (configuration not stated)	-4	-0.5%	0.2	4	-1	2.0
46	CCCn1c(C(O)c2ccc(C)cc2)nc2ccccc21 (configuration not stated)	-2	0.8%	-0.8	-6	·	1.4
47	O=C(CSc1nnc(-c2ccco2)n1-c1ccccc1)Nc1c(Cl)cc(Cl)cc1C(=O)O	-14	-0.5%	-0.5	-12	0	-1.3
48	CSc1ncccc1C(=O)N1CCN(C(=O)c2ccccc2)CC1	-10	2.2%	0.3	4	2	-4.3
49	CCCCCOC(=O)C1=C(C)NC(=O)NC1c1ccc(N(C)C)cc1 (configuration not stated)	-4	-0.1%	0.0	-9	-1	-4.9
50	O=C1c2ccccc2C(=O)c2[nH]c(=O)[nH]c21	1	-1.7%	3.1	?	?	10
51	CCN(CC)CCN(C(=O)c1cccc([N+](=O)[O-])c1)c1nc2ccc(OC)cc2s1	-19	5.6%	-0.2	0	-2	1.0
52	O=C(COc1ccccc1Br)NCc1ccco1	-10	1.3%[38.3 µM]	0.1	-4	-6	-1.5
53	CC(C)N(C)c1ncnc2c1ncn2[C@H]1CN(CCc2ccccc2)C[C@@H](CO)O1	-2	0.8%	-0.5	0	2	3.5

Screening results as filed in PubChem.
